NPYLR7 agonist: activates Aedes aegypti NPYLR7 receptor | HEK293T NPYLR7/Galpha15, GCaMP6s calcium fluorescence | activation, % at 10 µM | actives 0.15% (n = 270,000) | AID 1259423; in the data active = activation above about 40%;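 note: 0% = vehicle and 100% = reference agonist at the receptor; some compounds past the cut are filed as inactive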
NPYLR7 agonist max-min: also measured in NPYLR7 agonist; calls as there; activation, %; measured here: Max-Min RFU normalised activation; some inactives read as strong as hits;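 span of the calcium signal over five minutes; 0% = vehicle and 100% = native peptide agonist; compound fluorescence can raise it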
* hit, by the source's call.

SMILES	NPYLR7 agonist	NPYLR7 agonist max-min
O=S(=O)(c1cccs1)N1CCN(Cc2nnnn2-c2ccc(F)cc2)CC1	0.3	0.7
COCCN(CC(=O)N(Cc1cccn1Cc1ccccc1)C1CCCCC1)C(=O)c1ccc(C(C)(C)C)cc1	-4.5	2.0
CCCN(Cc1cccnc1)C(=O)c1cccc(Oc2ncccn2)c1	7.2	3.0
Fc1ccc(C2=NN3C(C2)c2ccccc2OC3c2ccncc2)cc1 (stereo not drawn)	-1.0	-2.1
CC(NS(=O)(=O)c1ccc(F)cc1)C(=O)NCCc1ccc(OC(F)F)cc1 (stereo not drawn)	-0.4	50.5
C[C@H](NCc1cccc(CN2CCOCC2)c1)C(N)=O	-0.2	-4.3
COc1cc(/C=C2/SC(=S)N(CC(=O)O)C2=O)ccc1OCc1ccccc1F	-4.2	-10.0
CSC(C)C(=O)NC(Cc1cccc(F)c1)c1cccc(F)c1 (stereo not drawn)	2.0	0.3
Cc1ccccc1C1(O)CCN(Cc2cn[nH]c2C(=O)O)C1 (stereo not drawn)	24.0	17.7
CCn1cc(C(=O)N2CCN(CC(=O)N3CCOCC3)CC2)c2nn(-c3ccccc3)c(=O)c-2c1	-1.8	-8.2
Cc1ccc(NC2CCCN(C(=O)c3ccccc3-c3ncc[nH]3)C2)cc1C (stereo not drawn)	2.2	1.8
O=C(NCC1CCCN(Cc2ccccc2-c2ccco2)C1)c1cccs1 (stereo not drawn)	2.9	-1.2
O=C(Nc1ccc(-n2cnc3ccccc32)cc1)c1ccco1	0.8	-3.4
Cc1c(C(=O)N2CCNC(=O)C2c2ccc(F)cc2)oc2c(F)cccc12 (stereo not drawn)	6.4	0.3
Cn1ccc(=O)n(CC(=O)Nc2ccc(Oc3ccc(Br)cc3)cc2)c1=O	-4.8	-7.0
CC(C)(C)n1ncc2c(=O)n(NC(=O)Cc3ccccc3)cnc21	6.7	3.3
CS(=O)(=O)Nc1ccccc1C1=NN(C(=O)c2ccccc2)C(c2ccco2)C1 (stereo not drawn)	-11.5	-11.9
Cc1nn2c(=O)[nH]c(SCC(=O)NCCc3ccccc3)nc2c1-c1ccccc1	9.7	2.0
N#CC1(NC(=O)CN2CCCCCC2CC(O)c2ccccc2)CCCC1 (stereo not drawn)	9.9	9.1
CCOC(=O)CN1C(=O)CN(C(=O)c2ccc3c(c2)OCCCO3)CCC(OC)c2ccccc21 (stereo not drawn)	2.0	6.0
C(=NN1CCN(c2ccccn2)CC1)C1=C(N2CCOCC2)C(=Cc2ccccc2)CC1	3.7	2.3
COc1ccc(C(=O)C[n+]2ccc(N(C)C)cc2)cc1	1.3	6.7
O=C(/C=C/c1ccccc1)O/N=C1/CCSc2ccccc21	-3.8	-4.8
O=C(Nc1cccc(-c2cnco2)c1)c1ccc(OC(F)(F)F)cc1	13.0	9.2
CN1CCN(C(=O)N2CCCC(Cn3cc(C(=O)O)nn3)C2)CC1 (stereo not drawn)	9.7	10.3
S=c1[nH]nc(-c2cccnc2)n1N=Cc1ccc(Br)cc1	3.3	2.4
COc1ccc(Cl)cc1NC(=S)N1CC(=O)N2CCc3cc(OC)c(OC)cc3C2C1 (stereo not drawn)	27.4	19.2
CC(C)(C)c1ccc(CCCN)cc1	6.2	10.2
CC(=O)Nc1cccc(-c2nc3ncccn3c2C)c1	7.5	9.6
Cc1cc(C)n(-c2ncnc3sc4c(c23)CCC(C)C4)n1 (stereo not drawn)	10.1	8.8
NC(=O)c1nc(-c2cccnc2)nc2c1[nH]c(=O)n2-c1ccc(Cl)c(Cl)c1	1.3	6.5
Cc1nn(-c2ccccc2)c2[nH]cc(C(=O)N3c4ccccc4CC3C)c(=O)c12 (stereo not drawn)	-3.4	24.7
Cc1ccc(C(N)=NCCc2csc(-c3ccc(C)cc3)n2)cc1	-4.1	1.8
N#CSc1ccc(N)c(Cl)c1	20.5	11.6
O=C(COc1ccccc1)NC1CCN(c2ccccc2C(=O)NCc2ccco2)CC1	-3.7	3.1
CC(=O)c1cccc(NC(=O)c2sc3nc4c(c(-c5cccnc5)c3c2N)CCCC4)c1	2.1	2.4
C#CCOCC(O)CN(Cc1ccc(F)cc1)CC1CC(c2ccc(Cl)c(Cl)c2)=NO1 (stereo not drawn)	-4.1	1.5
Clc1cccc(CSc2ncnc3c2nnn3Cc2ccccc2)c1	14.0	17.1
Cc1cc(C)c2nc(-n3nc(C)cc3C)cc(C)c2c1	3.3	1.1
COc1ccc2c(c1)C1(SCCN1C(=O)c1ccc(Cl)cc1)C(=O)N2Cc1ccc(F)cc1 (stereo not drawn)	4.6	5.8

Another view of part of the listing above.
Every second line gives: NPYLR7 agonist | NPYLR7 agonist max-min
> N#CSc1ccc(N)c(Cl)c1
    20.5 | 11.6
> O=C(COc1ccccc1)NC1CCN(c2ccccc2C(=O)NCc2ccco2)CC1
    -3.7 | 3.1

(next part)
SMILES	NPYLR7 agonist	NPYLR7 agonist max-min
Cc1c(NC(=O)c2cnn3c(C(F)(F)F)cc(-c4cccs4)nc23)c(=O)n(-c2ccccc2)n1C	12.2	11.6
COc1ccc(OC)c(C=CC(=O)Nc2nc3ccc(S(C)(=O)=O)cc3s2)c1	6.3	1.0
CCOC(=O)c1cccc2c3c([nH]c12)C(C(=O)OCC)CCC3 (stereo not drawn)	4.9	9.4
COc1cc(CCc2nc(-c3ccccc3)no2)cc(OC)c1OC	-0.1	5.6
FC(F)(F)c1ccc(Cn2cc(Br)cn2)cc1	4.3	5.4
Cc1ccsc1C1C2C(=O)CCCC2=Nc2ncnn21 (stereo not drawn)	10.8	2.5
CCOc1cnn(-c2ccc(Cl)cc2)c(=O)c1Nc1cccc(C(=O)NCc2ccccn2)c1	5.9	4.2
CN1CCN(Cc2c(-c3ccccc3)c(-c3ccccc3)c3ccccn23)CC1	-1.7	-5.2
Cc1c(NC(=O)c2cc3nc(-c4ccccc4)cc(C)n3n2)c(=O)n(-c2ccccc2)n1C	-6.5	-10.9
Cc1ccc(OCc2nc(C(=O)NC(C)C)cs2)c(C)c1	-1.4	3.7
N#Cc1ccc(CSc2nnc(-c3ccc(OC(F)F)cc3)o2)cc1	11.0	9.9
C[C@@H]1CN(CC(=O)Nc2cc(Cl)cc(Cl)c2)C[C@H](C)O1	-11.1	-18.5
CCOC(=O)c1[nH]c2ccccc2c1NC(=O)c1ccc(S(=O)(=O)N(C)C)cc1	4.3	1.5
CN(CC1CCCO1)C(=O)c1coc(COc2ccc3c(c2)OCO3)n1 (stereo not drawn)	9.9	3.4
N#Cc1cccc(C(=O)N2C[C@H](Oc3ccccn3)[C@H]3C[C@@H]2Cc2c3oc3ccccc23)c1	20.6	19.3
Nc1ccc(C(=O)N2CC[C@@H](c3ccc4c(c3)OCO4)[C@H](O)C2)cn1	7.4	-1.9
CCN(CC)S(=O)(=O)c1cc(C(=O)Nc2nnc(-c3ccccc3)s2)ccc1C	-13.6	-23.3
COc1cccc(NC(=O)N(CC(=O)N(CCc2c[nH]c3ccccc23)Cc2ccc(OC)c(OC)c2)CC(C)C)c1	4.5	7.4
COc1cn(CC(=O)Nc2ccc(C(C)=O)cc2)c(CSc2nc(C)cc(C)n2)cc1=O	-2.0	-9.1
COC(=O)C(=O)N1CCN(c2nc3nccc(-c4cccc(C)c4)n3n2)CC1	-0.9	-3.0
COc1ccc(NC(=O)NCCCn2nc(-c3ccccc3)ccc2=O)cc1OC	-0.3	-2.5
CCN(CC)CCCC(C)NC(=O)c1cc(-c2ccc(OC)cc2)nc2cc(-c3ccccc3)nn12 (stereo not drawn)	11.8	9.9
Fc1ccc(OCc2nnc3sc(C4CC4)nn23)cc1	-3.8	6.9
CCNC(=O)c1cnn(-c2ccc(F)cc2)c1CC	29.0	26.0
O=C(C1COc2ccccc2O1)N(Cc1ccccn1)c1nc2ccc(F)cc2s1 (stereo not drawn)	-1.4	-6.9
Cc1nccc(C(=O)N2CCN(CC(O)c3ccccc3)CC2)n1 (stereo not drawn)	4.6	1.9
Cc1ccc2c(CC(N)=O)c(Br)oc2c1	-1.9	-2.6
CN(Cc1ccc(S(C)=O)cc1)C(=O)NC1CCCSC1 (stereo not drawn)	10.8	9.0
O=C(C1CCN(Cn2c(=S)oc3cc(Cl)ccc32)CC1)N1CCCC1	-0.1	-3.4
COc1ccccc1NC(=O)CC(NCCCO)C(=O)O (stereo not drawn)	-1.6	1.3
O=C(NCC1CCN(Cc2cnn(-c3ccccc3)c2)C1)C1CCC1 (stereo not drawn)	7.8	-0.1
C=CCn1c(=O)c2cnc(Nc3ccc(N4CCN(C)CC4)cc3)nc2n1-c1cccc(C(C)(C)O)n1	-7.3	-14.9
Cc1ccc(C2Nc3ccc(C(=O)c4ccccc4)cc3N=C3CCCC(=O)C32)o1 (stereo not drawn)	-6.9	-5.7
CC(C)NC(=O)N(Cc1ccc(F)cc1F)CC1CC(c2cccs2)=NO1 (stereo not drawn)	-9.7	-9.1
COc1cc(OC)c(OC)cc1/C=C1N=C(/C=C/c2ccc(Cl)cc2Cl)OC\1=O	-12.8	-15.5
CCOC(=O)CNC(=O)C(F)(F)C(F)(F)C(F)(F)C(F)(F)C(=O)NCC(=O)OCC	7.7	8.4
COCCCNC(=O)c1nn(-c2ccccc2F)c(=O)n(Cc2cccc(C(F)(F)F)c2)c1=O	11.5	9.4
COCCNC(=O)c1coc(CN(Cc2ccccc2)Cc2cc(OC)ccc2OC)n1	11.5	5.3
CC(Sc1nc2cc(Cl)ccc2n1C)C(=O)NC(C)(C#N)C(C)C (stereo not drawn)	-4.0	-5.5
Cc1cc(C)n(-c2ncnc3sc4c(c23)CCC4)n1	18.0	12.8
Cc1ccc(Cn2ccnc2CN(Cc2ccco2)C(=O)c2ccc(F)cc2)cc1	4.6	3.8
Cc1nn(C)c(C)c1NC(=O)C(C)Sc1n[nH]c(=O)n1CCc1ccccc1 (stereo not drawn)	1.2	8.0
CC(C)NC(=O)CCNC(=O)c1ccnc(N2CCOC(C)C2)c1 (stereo not drawn)	3.2	4.1
CCN(C(=O)COc1ccc(-c2noc(C3CC3)n2)cc1)C1CC1	0.2	14.5
O=C1NCC2(CCCN(C(=O)CCN3C(=O)COc4ccccc43)C2)O1 (stereo not drawn)	4.3	4.6
O=C(CCS(=O)(=O)c1ccc(Br)s1)NC1CCCC1	-2.4	-2.3
CN(C)c1ccc(CN2CCC(C(=O)NC(c3ccccc3)c3ccsc3)CC2)cc1 (stereo not drawn)	-11.9	-14.0
O=C(Nc1nnc(CSCc2ccccc2)s1)c1ccco1	-8.9	-12.7
Cc1ccc(C)c(C2c3cccn3CCCN2Cc2cccc(Cl)c2)c1 (stereo not drawn)	8.4	15.2
CC(=O)N1CCN(c2cc(-c3ccccc3)nc(SCc3cccc(C(=O)NCCN4CCOCC4)c3)n2)CC1	9.8	5.9
(further entries)
SMILES	NPYLR7 agonist	NPYLR7 agonist max-min
O=C(c1sccc1Cl)N1Cc2cnn(Cc3ccc(F)cc3)c2C1	18.4	6.2
CCOC(=O)C1CCCCN1CC(=O)N1N=C(c2ccc(C)cc2C)CC1c1ccc(OC)cc1 (stereo not drawn)	-1.8	3.0
COc1ccc(NS(=O)(=O)c2cc(F)ccc2C)c(C(=O)NCc2ccccc2)c1	-1.9	3.2
CC1(C)C2CC[C@@]1(CS(=O)(=O)N1CCC[C@@H]1C(=O)NC1CCCC[C@H]1NC(=O)c1ccc(F)cc1)C(=O)C2 (stereo partly drawn)	16.1	14.4
Cc1ccn2c(=O)c(C(=O)NCc3ccccc3)c(O)nc2c1	-1.2	33.1
COCCn1c(C(=O)Nc2cccnc2)cc2c(=O)n(C)c(=O)n(C)c21	-1.5	-3.2
CC(C)CN1C(=O)CC(N2CCOCC2)C1=O (stereo not drawn)	-9.5	-15.5
O=c1c2cc([N+](=O)[O-])ccc2nc2n1CCC2=Cc1ccccc1	-5.2	13.2
COCCN1CCN(C(=O)c2ccc(-c3cc(-c4ccc(Cl)cc4Cl)[nH]n3)cc2)CC1	4.5	-0.3
COc1cccnc1C(=O)NCc1ccc2sccc2c1	6.7	0.3

Of the compounds above, 5 have a cyano group.
SMILES	NPYLR7 agonist	NPYLR7 agonist max-min
N#CC1(NC(=O)CN2CCCCCC2CC(O)c2ccccc2)CCCC1 (stereo not drawn)	9.9	9.1
N#CSc1ccc(N)c(Cl)c1	20.5	11.6
N#Cc1ccc(CSc2nnc(-c3ccc(OC(F)F)cc3)o2)cc1	11.0	9.9
N#Cc1cccc(C(=O)N2C[C@H](Oc3ccccn3)[C@H]3C[C@@H]2Cc2c3oc3ccccc23)c1	20.6	19.3
CC(Sc1nc2cc(Cl)ccc2n1C)C(=O)NC(C)(C#N)C(C)C (stereo not drawn)	-4.0	-5.5

(more compounds)
SMILES	NPYLR7 agonist	NPYLR7 agonist max-min
COc1ccccc1OCC(=O)NC1CCCC1(C)CO (stereo not drawn)	11.8	8.7
CCOCCOC1CCCN(C(=O)c2ccc(OC)cc2)C1 (stereo not drawn)	-1.4	4.6
CCc1nnc2n1N(C(C)=O)C(c1ccc(Br)cc1)=C(C(C)=O)S2	1.0	-2.7
O=C1NC(=Nc2ccccc2Cl)S/C1=C/c1ccccc1O	-3.8	-7.5

Entries shown so far that have two or more sulfur atoms (7):
SMILES	NPYLR7 agonist	NPYLR7 agonist max-min
O=S(=O)(c1cccs1)N1CCN(Cc2nnnn2-c2ccc(F)cc2)CC1	0.3	0.7
COc1cc(/C=C2/SC(=S)N(CC(=O)O)C2=O)ccc1OCc1ccccc1F	-4.2	-10.0
COc1ccc(OC)c(C=CC(=O)Nc2nc3ccc(S(C)(=O)=O)cc3s2)c1	6.3	1.0
CCN(CC)S(=O)(=O)c1cc(C(=O)Nc2nnc(-c3ccccc3)s2)ccc1C	-13.6	-23.3
CN(Cc1ccc(S(C)=O)cc1)C(=O)NC1CCCSC1 (stereo not drawn)	10.8	9.0
O=C(CCS(=O)(=O)c1ccc(Br)s1)NC1CCCC1	-2.4	-2.3
O=C(Nc1nnc(CSCc2ccccc2)s1)c1ccco1	-8.9	-12.7

An excerpt (hit frequency here may not be typical).
